A1 inh = caspase 3/7 activation in MEF A1-2A-BIM cells, primary screen, A1 inhibitor project, cell-based, luminescence, HTS. Caspase-Glo 3/7 luminescence, 3 h; percent of clofoctol response, vehicle zero. caspase activation, % (concentration not given with the values). 330,000 tested, 0.066% active;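 active = over half of replicate activation scores above 10%, or exactly half above 10 with the replicate mean above 10; inconclusive = replicate mean below 10 yet half the replicates above 10; inactive = over half of replicates below 10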;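 note: wells of about 30 µL received 50 nL stock; many hits fall short of the cut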
T cruzi repl = inhibitors of intracellular T. cruzi growth, primary screen, luminescence, NIH3T3 host cells; inhibition, % (no concentration beside the values); AID 1885, 2009; 300,000 tested, 1.4% active; T. cruzi beta-gal in NIH3T3, 90 h;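 active = mean inhibition across valid replicates above about 55%, limit read from the data; inconclusive = mean below that limit but half or more replicates reach it; inactive = mean below it, under half of replicates reach it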;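 note: signal also drops with host cell toxicity which is not excluded here; 0% = plate median of DMSO wells and 100% = zero luminescence signal; higher percent means less beta-gal luminescence so fewer parasites; stock transfer was 50 nL into about 50 µL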
LANA-H2B inh = blockers of LANA interaction with H2A/H2B – biochemical, FP readout, HTS, primary screen. 320,000 tested, 0.6% active. cell-free LANA-H2A/H2B peptide, fluorescence polarization. Protein LANA1 (Human herpesvirus 8 type P (isolate GK18)), Q9QR71. inhibition, % (no concentration beside the values); in the data active = inhibition mostly above about 10%, no sharp cut-off; inactive = mostly below about 6.7%;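 note: stock transfer was 7.5 nL into about 10 µL; 0% = median of vehicle wells and 100% = median of positive control wells; one replicate is shown; the record names a cut of 25% in any replicate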
RanGTP-Impb inh = inhibitors of RanGTP-importin-beta interaction, primary screen, biochemical, FRET, CFP-Ran, YFP-importin-beta, homogeneous | Ran GTPase (GTP-bound) - importin-beta complex | cell-free CFP-Ran/YFP-importin-beta FRET ratio | inhibition, % (concentration not given with the values) | 300,000 tested, 1.1% active;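 active = most replicates above 15%; inconclusive = exactly half above 15%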;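 note: 0% = DMSO wells and 100% = Ran loaded with GDP instead of GTP; wells of about 40 µL received 100 nL stock; the first replicate is given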
Beta apoptosis = inhibitors of cytokine-induced beta cell apoptosis, primary screen, luminescence; INS-1E cytokine-induced death, ATP luminescence, 48 h; percent of positive-control rescue, neutral wells zero; protection from apoptosis, % (test concentration not listed); 300,000 tested, 0.8% active;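 active = all replicates at 75% or more, or half of them and the mean; inconclusive = half reach 75% but not the mean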;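 note: 0% = cytokine-treated negative control wells and 100% = positive control rescue; higher means more ATP so stronger rescue from cytokine killing; wells of about 40 µL received 100 nL stock; the first replicate is given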
Beta2AR agonist = beta2AR agonists driving receptor internalization, primary screen, cell-based, FAP fluorogen, flow cytometry; Beta-2 adrenergic receptor (Homo sapiens), P07550; Am2.2-beta2AR cells; reference of the scale not given here; response, % (no concentration beside the values); 340,000 tested, 0.43% active; AID 504454, 2011;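 active = response above a set limit, near 3 SD of response in nonfluorescent compounds, cut at about 42% in these data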;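 note: stock transfer was 100 nL into about 11 µL; a reference agonist was the positive control; negative values mostly stem from fluorescent compounds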
Target sequence (P07550 whole entry, looked up): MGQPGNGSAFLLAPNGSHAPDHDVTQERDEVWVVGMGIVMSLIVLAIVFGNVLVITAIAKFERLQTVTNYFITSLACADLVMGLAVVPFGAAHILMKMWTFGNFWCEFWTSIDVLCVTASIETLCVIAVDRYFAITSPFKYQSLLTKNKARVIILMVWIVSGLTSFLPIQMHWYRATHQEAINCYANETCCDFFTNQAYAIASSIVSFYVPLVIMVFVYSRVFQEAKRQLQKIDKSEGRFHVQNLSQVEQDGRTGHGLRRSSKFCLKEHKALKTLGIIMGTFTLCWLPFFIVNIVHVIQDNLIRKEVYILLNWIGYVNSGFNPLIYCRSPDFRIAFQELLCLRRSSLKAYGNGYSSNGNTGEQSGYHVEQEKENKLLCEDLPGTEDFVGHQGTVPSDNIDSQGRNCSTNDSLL
Calb FLC = C. albicans growth inhibition with fluconazole, primary screen, CaCi-2 strain, Alamar Blue fluorescence. C. albicans CaCi-2 (fluconazole-resistant clinical isolate) + fluconazole, 48 h. growth inhibition, % (no concentration beside the values). 300,000 tested, 0.57% active. AID 1979, 2009;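 active = most replicates above 75%; inconclusive = exactly half above 75%; inactive = most below 75%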;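 note: all wells also contain fluconazole at 8 µg/ml as a sub-toxic cotreatment; 0% = median of DMSO wells and 100% = median of geldanamycin control wells; wells of about 8 µL received 7.5 nL stock; the first replicate is given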
UCH37 inh = inhibitors of human UCH37 deubiquitinase, primary screen, biochemical, Ub-AMC cleavage, fluorescence. Ubiquitin carboxyl-terminal hydrolase isozyme L5 (Homo sapiens), Q9Y5K5. purified proteasome/UCH37. inhibition, % (no concentration beside the values). 330,000 tested, 0.33% active. AID 588478, 2011;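 active = mean of two replicates above 20%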;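 note: 0% = compound-free wells with enzyme and 100% = wells lacking proteasome; stock transfer was 100 nL into about 20 µL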
Target sequence (Q9Y5K5 whole entry, looked up): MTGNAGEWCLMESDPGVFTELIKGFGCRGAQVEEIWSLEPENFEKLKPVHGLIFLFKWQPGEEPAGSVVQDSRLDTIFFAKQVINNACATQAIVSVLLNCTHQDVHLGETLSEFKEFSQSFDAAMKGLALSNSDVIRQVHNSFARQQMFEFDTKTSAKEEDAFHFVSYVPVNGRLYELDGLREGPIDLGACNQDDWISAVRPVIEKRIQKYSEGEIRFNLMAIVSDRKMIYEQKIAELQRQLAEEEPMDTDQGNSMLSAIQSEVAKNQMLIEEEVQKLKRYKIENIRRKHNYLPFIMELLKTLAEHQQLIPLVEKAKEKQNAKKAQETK
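assay system = human UCH37 enzyme supplied as purified proteasome complex | amount = proteasome at 0.15 nM in the dispensed enzyme solution | schedule = 30 min compound-proteasome preincubation then 25 min substrate reaction, room temperature | measured by = fluorescence, ex 355 nm, em 460 nm | benchmarks = no-proteasome wells (full inhibition) and compound-free wells (no inhibition)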
* hit, by the source's call; ? = inconclusive; . = no result given.

Second line of a record – A1 inh, T cruzi repl, LANA-H2B inh, RanGTP-Impb inh, Beta apoptosis, Beta2AR agonist, Calb FLC, UCH37 inh
1) CCN(CC)S(=O)(=O)c1ccc(S(=O)(=O)N2CCN(C(=O)c3ccco3)CC2)cc1
→ -0.3, -8, -1.8, 0.3, 2, -2, -19, 1.9
2) CC(C(=O)NN=C(c1ccccc1)c1ccccc1)N1CCOCC1 (configuration not stated)
→ 0.6, -5, 1.4, -0.8, 2, -3, -10, -2.7
3) Cc1cccc(C)c1NC(=O)CSc1nnc(-c2cccnc2)o1
→ -0.3, -7, -0.4, -0.4, -5, 1, 0, 5.1
4) CC1CCCCN1C(=O)CSc1nc(-c2ccccc2)cc(=O)[nH]1 (configuration not stated)
→ 1.0, 8, -3.6, 0.9, -2, 4, 3, 0.4
5) O=C(CCNS(=O)(=O)c1ccc(Cl)cc1)NCc1cccnc1
→ 1.2, -30, 1.4, 5.5, 0, -3, 14, 1.9
6) CCOc1ccc(CC2S/C(=N/N=C/c3ccco3)NC2=O)cc1 (configuration not stated)
→ -0.2, 4, 4.3, ?, ., 0, 21, .
7) Cn1c(SCc2ccccn2)nnc1-c1cnccn1
→ 0.0, 6, 0.8, 0.8, 0, 2, 2, 3.7
8) CCOc1ccc(-n2c(C)cc(/C=N/N(C)C)c2C)cc1
→ -0.4, 56*, -0.8, 2.1, 2, 2, -27, .
9) CC1Sc2ccc(S(=O)(=O)CCC(=O)NCc3ccccc3)cc2NC1=O (configuration not stated)
→ 0.9, -2, -0.4, -1.7, -7, -12, 1, -0.5
10) Cc1ccc(NC(=S)NCCc2ccc(S(N)(=O)=O)cc2)cc1C
→ -0.3, 6, 2.8, 1.3, -8, -5, -1, 2.6
11) CCC(=O)N1CCN(c2ccc(NC(=S)NC(=O)c3cccc([N+](=O)[O-])c3)cc2)CC1
→ -1.8, -8, -2.0, 6.8, 2, -10, 2, 4.8
12) CC1(C)CC(NC(=O)C23CCC(C)(C2Br)C3(C)C)CC(C)(C)N1 (configuration not stated)
→ -0.3, ., -1.6, 1.1, 0, 1, -2, 7.0
13) CCCc1cc(=O)oc2cc(OCC(=O)NCCCN3CCOCC3)ccc12
→ 1.1, -12, 1.2, 8.1, ., -13, -2, -13
14) Cc1ccc(C(=O)NCc2ccccn2)o1
→ 0.6, -17, -1.4, -2.5, -4, 1, -9, 3.5
15) O=C(COC(=O)c1ccccc1Br)Nc1ccccc1F
→ 0.6, -20, -0.5, 1.3, -6, 4, -47, .
16) CCOC(=O)N1CCN(C(=O)CCSc2ccc(C)cc2)CC1
→ -0.3, -5, -6.7, -0.1, ., 1, 7, 4.3
17) COc1ccc(CCN(C)C(=O)CCCN2C(=O)c3cccc4cccc(c34)C2=O)cc1OC
→ -0.1, 17, 7.5, 5.8, 12, -3, -4, -2.9
18) CC(C)Oc1ccc(/C=C/C(=O)NCC2COc3ccccc3O2)cc1 (configuration not stated)
→ -1.0, 6, 2.3, 0.0, 2, 58*, -2, 4.2
19) Oc1ccc(-c2nccc(-c3ccc(Br)cc3)n2)cc1
→ -0.2, 16, -2.8, -1.8, -2, -7, 8, 2.6
20) O=C(O)c1cnc(-c2ccccc2)nc1C(F)(F)F
→ -1.8, -7, 2.1, 3.9, ., -1, -3, 2.8
21) O=C(CN1C(=O)CCC1=O)Nc1ccc(Cc2ccc(NC(=O)CN3C(=O)CCC3=O)cc2)cc1
→ 1.4, -14, 0.3, 0.0, -3, -2, -10, 2.9
22) Cc1nc2ccccc2c(=O)n1NC(=O)c1cncc(Br)c1
→ -0.1, -14, -3.6, -0.2, 1, -5, -4, 2.6
23) NC(=O)CSc1nnc(NC(=O)c2ccc(S(=O)(=O)N3CCCCC3)cc2)s1
→ 0.1, -9, 1.9, -0.7, 1, -3, -3, -60
24) O=C(Cc1ccc2c(c1)OCCO2)N1CCN(S(=O)(=O)c2cccs2)CC1
→ 0.2, -4, -3.8, 4.2, 2, 4, 8, 0.6
25) CCN(CC)CCCN1C(=O)C(O)=C(C(=O)c2ccco2)C1c1ccc(OC(C)C)cc1 (configuration not stated)
→ 1.5, -2, -4.8, -1.9, 6, -4, 1, 4.6
26) N#C/C(=C(/O)CCl)c1nc2ccccc2[nH]1
→ 0.8, 50, 3.8, 2.2, 0, 2, 52, .
27) Cc1ccc(S(=O)(=O)NC(C)c2ccccc2)cc1[N+](=O)[O-] (configuration not stated)
→ 0.6, -15, 6.8, -2.7, -1, 5, -41, .
28) O=C(NNC(=O)c1csc(-c2cnccc2C(F)(F)F)n1)c1ccc(C(F)(F)F)cc1
→ -0.4, 11, -7.2, 5.9, 0, 10, -3, 3.2
29) COc1ccc(S(=O)(=O)N2CCOC2CNC(=O)C(=O)NCCN2CCOCC2)cc1C (configuration not stated)
→ 0.9, -1, 1.1, 6.4, -2, -7, -5, -2.8
30) CC1CCCC(C)N1CC(O)Cn1c2ccccc2c2ccccc21 (configuration not stated)
→ -0.2, 21, 12, -4.9, 12, 6, 0, 1.5
31) COc1ccc(C(=O)Nc2nc(-c3ccccn3)cs2)cc1S(=O)(=O)N1CCOCC1
→ 0.3, ., -0.8, ., 54, 14, ., 2.0
32) CCCCOc1ccc(NC(=O)C(=O)NCCCn2ccnc2)cc1
→ -0.2, 27, -7.8, 2.0, 12, -15, -2, 1.8
33) CCOC(=O)C1(c2nc(N)cs2)COC(=O)C1 (configuration not stated)
→ 0.2, -6, -0.4, 0.8, -4, -2, -4, 2.6
34) COC(=O)c1ccc(NC(=O)CN2CCN(c3cccc(Cl)c3)CC2)cc1
→ -0.5, 10, 0.9, 0.0, -3, 3, 8, 1.3
35) Cc1ccccc1N(C(=O)CNC(=O)c1ccco1)C(C(=O)NC1CCCCC1)c1ccncc1 (configuration not stated)
→ 0.4, -10, 3.6, 3.9, -9, -5, 25, -0.9
36) CC1CC1c1ccc(/C=C(\C#N)C(=O)Nc2ccccc2Cl)o1 (configuration not stated)
→ 1.6, 4, 1.2, 36*, -8, -10, 0, -3.3
37) COc1ccccc1NS(=O)(=O)c1ccc(NC(=O)N2CCCCC2)cc1
→ 0.6, -3, 6.0, 1.6, -4, -5, 3, 0.5
38) Cc1ccc(N2C(=O)CS(=O)(=O)CC2=O)cc1
→ -1.2, -10, -1.5, -0.2, 5, 6, -2, 0.9
39) CCCOC(=O)c1ccc(Cl)c(NC(=O)c2cccnc2)c1
→ 0.2, -5, -5.7, 3.1, -5, ., 16, -0.7
40) O=C(NCCF)[C@H]1C[C@@H]1[C@H](NP(=O)(c1ccccc1)c1ccccc1)c1ccccc1
→ 0.7, -3, 3.5, 0.5, -7, -3, 22, -0.7
41) Cc1cccc(C(C)Nc2ccc([N+](=O)[O-])cn2)c1 (configuration not stated)
→ 1.0, -6, 1.1, 0.5, -5, 1, 10, 6.8
42) Cc1c(N)ccc(-n2nc3ccccc3n2)c1C
→ -0.6, -7, 3.2, -0.9, ., -6, 0, -10
43) O=C(COc1ccc(Cl)cc1Cl)N1CCCC1
→ -0.3, -7, -1.2, -1.4, -9, -2, -11, 1.2
44) CSc1nnc(Cc2cc(=O)[nH]c(=O)[nH]2)n1-c1cc(C)ccc1C
→ 0.7, 0, 2.9, 3.3, -1, 1, -15, 1.6
45) CC(=O)Nc1cc(S(=O)(=O)Nc2cccc(C)c2)c(C)cc1C
→ -1.0, 12, 2.4, 2.4, -5, 1, -4, 3.8
46) CN(C)c1ccc(/C=N/NC(=O)CCc2nc3ccccc3[nH]2)cc1
→ -0.7, -8, -0.2, -1.7, -3, -3, -1, .
47) COC(=O)c1ccc(CN(C(=O)N2CCN(C)CC2)S(=O)(=O)c2ccc(C)cc2)cc1
→ -1.1, -14, -2.8, 0.4, ., 4, -2, -1.3
48) O=C(Nc1ccc(Cc2ccc(NC(=O)C3CC3)cc2)cc1)C1CC1
→ -0.5, -7, -3.4, -1.9, 1, 4, -1, 5.4
49) CSc1n[nH]c(/N=C/c2oc(O)c3ccccc23)n1
→ -0.6, -2, -0.8, 1.8, -4, -3, 23, .
50) O=C(Nc1cc(C(F)(F)F)cc(C(F)(F)F)c1)Nc1cnn(-c2ccc([N+](=O)[O-])cc2)c1C(F)(F)F
→ 0.9, -7, -2.5, -2.9, 116*, 26, -12, 4.7

The last 4 compounds of the part above are carried over, then new ones follow.
Second line of a record – A1 inh, T cruzi repl, LANA-H2B inh, RanGTP-Impb inh, Beta apoptosis, Beta2AR agonist, Calb FLC, UCH37 inh
47) COC(=O)c1ccc(CN(C(=O)N2CCN(C)CC2)S(=O)(=O)c2ccc(C)cc2)cc1
→ -1.1, -14, -2.8, 0.4, ., 4, -2, -1.3
48) O=C(Nc1ccc(Cc2ccc(NC(=O)C3CC3)cc2)cc1)C1CC1
→ -0.5, -7, -3.4, -1.9, 1, 4, -1, 5.4
49) CSc1n[nH]c(/N=C/c2oc(O)c3ccccc23)n1
→ -0.6, -2, -0.8, 1.8, -4, -3, 23, .
50) O=C(Nc1cc(C(F)(F)F)cc(C(F)(F)F)c1)Nc1cnn(-c2ccc([N+](=O)[O-])cc2)c1C(F)(F)F
→ 0.9, -7, -2.5, -2.9, 116*, 26, -12, 4.7
51) COc1cc(C(=O)NCC(=O)NNC(=O)CN(C)S(=O)(=O)c2ccc(Cl)cc2)cc(OC)c1OC
→ 0.5, ., 4.7, ., -10, -2, ., 3.1
52) CCOc1ccc(C(=O)CCC(=O)Nc2ccncc2)cc1
→ -0.4, ., 3.1, ., 4, -2, ., 4.2
53) CC1Cc2cc(S(=O)(=O)N3CCN(c4ccccc4F)CC3)ccc2N1C(=O)C1CC1 (configuration not stated)
→ 0.6, 19, -3.3, 1.1, 13, -19, 1, 4.1
54) Cc1cc(C)nc(N2CCC(C(=O)NCc3cccs3)CC2)n1
→ 0.3, 17, -1.1, -1.8, -1, -2, -51, -3.8
55) COc1cc(N=Nc2cccc(S(N)(=O)=O)c2)c2ccccc2c1N
→ 0.3, 7, -1.6, 0.1, -30, -90, -38, 10

Source: PubChem BioAssay (several laboratories)
